From PubChem BioAssay
YopH PTP inh: inhibitors of Yersinia enterocolitica YopH tyrosine phosphatase. fluorescence Ex485/Em525. inhibition, %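 (about 10 µM by stock and volumes)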. 140,000 compounds, 0.16% hits. AID 898;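 active means inhibition of 50% or more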;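 further: controls were vehicle for no effect and minimum signal wells for full effect; inactives centre near -20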
Mtb H37Rv: M. tuberculosis H37Rv growth inhibitors, H37Rv strain (AID 1626) | M. tuberculosis H37Rv growth inhibition; higher % means a stronger effect | 220,000 compounds, 0.95% hits | inhibition, % at 10 µM, or IC50 in µM where a hit was titrated;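 active means confirmed in a dose series; inconclusive means inhibition above 80% but not taken into the dose series; inactive means below 80% or under 30% at every dose of the series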;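 further: bacteria incubated seven days before Alamar blue readout; 0% = bacteria only wells and 100% = bacteria with antibiotic wells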
RecA splice inh: Mtb RecA intein splicing inhibition | P9WHJ3 | cell-free RecA intein splicing, fluorescence | inhibition, %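 (about 9 µM by stock and volumes)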 | 290,000 compounds, 0.75% hits | AID 2221; in the data active means inhibition above about 30%; inconclusive means no clear call, values can overlap the other calls;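 further: 0% = vehicle wells and 100% = reference inhibitor control wells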
Target sequence (P9WHJ3 whole entry, looked up, canonical isoform): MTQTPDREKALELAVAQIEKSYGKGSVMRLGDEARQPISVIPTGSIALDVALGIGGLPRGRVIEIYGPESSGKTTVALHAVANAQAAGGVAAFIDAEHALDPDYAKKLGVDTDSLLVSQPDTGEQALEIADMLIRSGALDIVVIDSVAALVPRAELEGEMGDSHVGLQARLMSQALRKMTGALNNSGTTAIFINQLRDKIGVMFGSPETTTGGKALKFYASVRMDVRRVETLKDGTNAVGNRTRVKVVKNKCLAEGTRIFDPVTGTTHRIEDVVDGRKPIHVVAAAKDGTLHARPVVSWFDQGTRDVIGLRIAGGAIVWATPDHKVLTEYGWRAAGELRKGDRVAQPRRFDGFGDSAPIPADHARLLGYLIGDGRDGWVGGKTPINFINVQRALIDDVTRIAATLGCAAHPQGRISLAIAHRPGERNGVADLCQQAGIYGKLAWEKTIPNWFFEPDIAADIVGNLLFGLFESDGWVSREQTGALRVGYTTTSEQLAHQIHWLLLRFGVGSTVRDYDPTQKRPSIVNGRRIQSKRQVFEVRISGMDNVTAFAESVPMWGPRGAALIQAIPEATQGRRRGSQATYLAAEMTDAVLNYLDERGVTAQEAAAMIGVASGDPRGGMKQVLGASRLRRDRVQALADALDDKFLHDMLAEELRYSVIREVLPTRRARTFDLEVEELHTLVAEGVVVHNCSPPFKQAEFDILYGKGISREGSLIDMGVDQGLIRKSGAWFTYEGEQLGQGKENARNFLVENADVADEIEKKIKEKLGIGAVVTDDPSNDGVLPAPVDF
Arbovirus inh: antivirals against arbovirus infection; arbovirus infection cell-based antiviral screen; 200,000 compounds, 0.37% hits; inhibition, % at 10 µM;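 active means inhibition from about 30%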;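 further: bluetongue infection of BSR cells; cell survival read as ATP light after 72 h; 0% = infected wells without compound and 100% = uninfected wells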
Mtb bLac sens: beta-lactam sensitization of Mtb H37Rv | inhibition, % at 25 µM | 330,000 compounds, 0.27% hits | AID 434955 | M. tuberculosis H37Rv growth with meropenem, percent inhibition; hits of this screen are not shown here;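 active means about 74% or more and at least 40 points above the plate without the antibiotic, then above 30% in a dose series; inconclusive means first-round hits that could not be retested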;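 further: growth measured after seven days incubation then overnight dye step; 0% = bacteria only wells and 100% = bacteria with antibiotic; twin plates without the antibiotic show which effects depend on it; some results filed as inactive read as strong as hits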
Arbovirus inh repeat: recorded beside Arbovirus inh, whose call it bears; inhibition, %; measured here: 10K subset replicate screen; many hits read low in the repeat;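 first of two repeat runs on a subset; 0% = infected and 100% = uninfected wells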
* = called active by the depositor; u = inconclusive; x = not tested or not shown.

A first look, five compounds:
SMILES | YopH PTP inh | Mtb H37Rv | RecA splice inh | Arbovirus inh | Mtb bLac sens | others
CCn1c(=O)c(=O)[nH]c2cc(C(=O)N(C)Cc3ccc(OC)c(F)c3)ccc21 | x | x | 1.2 | x | 4
N#Cc1nc(-c2ccccc2F)oc1NCCc1ccccc1 | -20 | u | -0.7 | 10 | 67
CCOC(=O)C(=O)NCc1ccc(/C=C2/N=C(C)C(C(=O)OCC)=C2O)o1 | x | -7% | -3.2 | -1 | 0
O=C(COc1ccc(Br)cc1)NCCCNC(=O)c1cnccn1 | x | x | -1.8 | x | -2
Cc1ccc(NC(=O)/C(C#N)=C/c2cccs2)c(C)c1 | 1 | -7% | -1.1 | 2 | 46

All compounds of this part (from the top)
SMILES | YopH PTP inh | Mtb H37Rv | RecA splice inh | Arbovirus inh | Mtb bLac sens | others
CCn1c(=O)c(=O)[nH]c2cc(C(=O)N(C)Cc3ccc(OC)c(F)c3)ccc21 | x | x | 1.2 | x | 4
N#Cc1nc(-c2ccccc2F)oc1NCCc1ccccc1 | -20 | u | -0.7 | 10 | 67
CCOC(=O)C(=O)NCc1ccc(/C=C2/N=C(C)C(C(=O)OCC)=C2O)o1 | x | -7% | -3.2 | -1 | 0
O=C(COc1ccc(Br)cc1)NCCCNC(=O)c1cnccn1 | x | x | -1.8 | x | -2
Cc1ccc(NC(=O)/C(C#N)=C/c2cccs2)c(C)c1 | 1 | -7% | -1.1 | 2 | 46
CC1(C)Nc2ccccc2N(CC(=O)N2CCCCC2)C1=O | -22 | -3% | -1.9 | 2 | -2 | Arbovirus inh repeat=7
Cc1nn(C)cc1CNC(=O)C1(C)CC1(Cl)Cl (stereo unspecified) | -43 | 5% | 1.0 | 5 | -6
CC(C)CC1NC(=O)N(CC(=O)N2CCCc3ccccc32)C1=O (stereo unspecified) | x | 4% | -0.6 | 2 | -7
COc1ccc2c(c1)C(C1=C(O)CC(C)(C)CC1=O)C1=C(CC(C)(C)CC1=O)O2 (stereo unspecified) | 13 | -12% | -2.3 | -3 | -2
COC(=O)C1Cc2c([nH]c3ccccc23)CN1 (stereo unspecified) | -24 | 3% | -4.8 | -3 | -2
CC(=O)O/C(=C\c1cn(C(C)=O)c2ccccc12)C(=O)O | x | 8% | -3.8 | x | -8
O=C(O)c1ccc(CSc2nnc(-c3cccnc3)n2-c2ccc(Br)cc2)cc1 | x | -7% | 0.5 | 2 | -6
CCOC(=O)CCc1c(C(=O)OCC)[nH]c(CC)c1C(=O)OCc1ccccc1 | x | 3% | 0.3 | x | 0
COC(=O)c1ccc(C(=O)OC)c(=O)[nH]1 | x | 17% | 9.8 | x | 5
Cc1oncc1-c1csc(-c2ccccc2)n1 | x | 14% | 7.0 | 2 | -1
Cc1cc([N+](=O)[O-])nn1CCCC(=O)NC(C)c1ccccc1 (stereo unspecified) | -27 | -4% | -1.6 | -4 | -11
CCC(C)(C)n1nnnc1C(c1cc2cc(C)ccc2[nH]c1=O)N1CCCc2ccccc21 (stereo unspecified) | -14 | x | 3.2 | -4 | -4
Cc1nc2ccccn2c1C(=O)CSc1cccc(Cl)c1 | x | 8% | 6.5 | 12 | 6
COc1ccc(N2C(=O)CC(N3CCC(C(N)=O)CC3)C2=O)cc1 (stereo unspecified) | -4 | -10% | 2.1 | 3 | -12
COc1ccc(S(=O)(=O)NN=C2CCCC2)cc1 | -45 | -3% | -2.8 | 3 | -5
O=c1c2cc3c(cc2[nH]c(=S)n1Cc1ccco1)OCO3 | -34 | x | -2.9 | 4 | 10
CCn1c(COc2ccc(Cl)cc2)nnc1SCc1nc2ccccc2[nH]1 | -13 | 14% | x | -10 | x
O=C(CCCN1C(=O)/C(=C/c2cccc(Br)c2)SC1=S)NCCCN1CCOCC1 | x | x | 4.3 | x | -3
C=Cc1ccc(Cn2nc(-c3ccc(C)cc3)ccc2=O)cc1 | x | x | 2.7 | x | -1
CN1CCCN(Cc2nc(-c3ccc(Cl)cc3)no2)CC1 | x | -1% | -2.5 | 0 | -6
COc1ccccc1-n1cnc2cc(NCc3ccco3)ccc21 | -25 | 6% | -2.4 | -2 | 9
Cc1ccn2c(C(=O)N/N=C\c3ccccc3[N+](=O)[O-])c(C)nc2c1 | -42 | -10% | -1.1 | x | -1
CC(C)C[C@@H](C(=O)NC1CCN(Cc2ccccc2)CC1)N1C(=O)N2CCc3c([nH]c4ccccc34)[C@@]2(C)C1=O | x | x | 5.4 | x | 20
COc1ccc(CNc2ccc(C(=O)O)cc2)cc1 | -26 | 3% | 1.6 | 0 | 3
CC(=O)C(Cc1ccccc1)NC(=O)CN1CCN(Cc2ccccc2)CC1 (stereo unspecified) | x | 1% | 1.2 | 1 | 5
COc1ccc(N2CC(NS(=O)(=O)c3cccnc3)CC2=O)cc1OC (stereo unspecified) | x | x | -1.8 | x | -2
CCC(C)Oc1nc(C)cc(C)c1S(=O)(=O)c1ccccc1C (stereo unspecified) | -12 | -1% | 14 | 1 | 7
CN(C)C(=O)c1ccc(-c2n[nH]c(=O)c3ccccc23)cc1 | x | -2% | -1.0 | 3 | -3
COCc1cc(C)nc2sc(C(=O)Nc3ccc(OC)cc3)c(N)c12 | x | x | -19 | x | 33
CCOC(=O)C1=C(COC(=O)c2cccc(N(C)C)c2)NC(=O)NC1C (stereo unspecified) | x | x | 2.2 | x | -10
CNC(=O)NC(=O)COC(=O)CCCSc1nc2ccccc2s1 | -30 | 8% | -0.4 | 5 | 1
CCCc1nn2c(=O)cc(CSCC(=O)Nc3nnc(CC)s3)nc2s1 | x | x | -1.9 | x | -5
COc1ccc(C2CC(c3cccs3)=NN2c2ccc(F)cc2)cc1OC (stereo unspecified) | x | 11% | -104 | 1 | 18
O=C(NCCN1CCN(C(=O)c2cccs2)CC1)c1cccs1 | -24 | -5% | -2.6 | 8 | -23
COc1ccc(/C=N/n2c(C)nc3c([nH]c4ccccc43)c2=O)cc1CN1CCCC(C)(C)C1 | x | -11% | -1.0 | x | 7
COc1ccc2[nH]c(=O)c(CN(C(=O)C(C)C)c3ccccc3OC)cc2c1 | x | x | -0.3 | x | -4
CC(C)(C)C1CCCCC1NC(=O)c1ccncc1 (stereo unspecified) | x | x | -0.2 | x | 1
NC(=O)CSc1nnc(C2CC2)n1-c1ccccc1 | 7 | -21% | -0.3 | -1 | -11
CN(C)S(=O)(=O)N1CCN(C(=O)N2CCCCC2)CC1 | -21 | -9% | 0.7 | 2 | -2
O=C(O)CC(Cc1ccccc1)C(=O)NCC12CC3CC(CC(C3)C1)C2 (stereo unspecified) | x | -1% | -5.7 | -1 | 2
Cc1cc(NC(=O)CCC(=O)N(c2ccccc2)C(C(=O)NC(C)(C)C)c2ccccc2Cl)no1 (stereo unspecified) | x | x | 3.8 | x | -8
O=C(Cc1ccccc1)N[C@H](c1ccccc1)P(=O)(O)CO | -17 | -2% | -1.9 | 1 | -30
Cc1ccc(CNc2nc(N)c([N+](=O)[O-])c(NCc3ccccc3)n2)cc1 | 0 | 3% | -5.8 | 5 | 0
CC(C)(C)c1cc(C(=O)N/N=C/c2ccccn2)n[nH]1 | x | -4% | 0.0 | x | 57
O=C(/C=C/c1ccc([N+](=O)[O-])cc1)NCCOc1ccc(F)cc1 | x | 12% | -0.6 | 14 | 1
CCOC(=O)C1Cc2c([nH]c3ccccc23)CN1 (stereo unspecified) | -33 | -6% | -0.9 | -4 | -4
Cc1ccc(S(=O)(=O)N(C)C/N=C(\N)N[N+](=O)[O-])cc1 | x | 1% | -0.3 | 16 | -2
Cc1cc(C(=O)N/N=C2\CCCC(=O)C2)c2ccccc2n1 | 7 | -2% | -3.8 | 0 | -5
Cc1ccc(Nc2nc(-c3ccncc3)nc3ccccc23)cc1 | x | -5% | -0.8 | x | 17
CC(C)CCNC(=O)c1c(CSc2ccc(Cl)cc2)noc1C(=O)NCc1ccccc1 | x | 12% | -1.7 | x | 0
COc1ccc(CNC(=O)c2ccc(CS(=O)Cc3cccc(Cl)c3)o2)cc1 (stereo unspecified) | x | x | 0.9 | x | 0
CC(=O)Nc1ccc(OCCOc2ccc(/C=C3/C(=N)N4C=CSC4=NC3=O)cc2)cc1 | x | -1% | 5.6 | -10 | 2
O=C(NN1CCOCC1)c1ccc(Br)s1 | x | -2% | -4.8 | 2 | -7
O=S(=O)(c1ccc(S(=O)(=O)N(Cc2ccc(F)cc2)C2CCCC2)cc1)N1CCCC1 | -20 | -7% | 2.5 | 5 | x
CCCN(CCC)S(=O)(=O)c1ccc2c(c1)CCCN2C(C)=O | -19 | 10% | 0.5 | 7 | 0

Fetched by compound from the entries so far:
SMILES | YopH PTP inh | Mtb H37Rv | RecA splice inh | Arbovirus inh | Mtb bLac sens | others
COc1ccc(CNC(=O)c2ccc(CS(=O)Cc3cccc(Cl)c3)o2)cc1 (stereo unspecified) | x | x | 0.9 | x | 0
Cc1ccc(Nc2nc(-c3ccncc3)nc3ccccc23)cc1 | x | -5% | -0.8 | x | 17
CC(C)CCNC(=O)c1c(CSc2ccc(Cl)cc2)noc1C(=O)NCc1ccccc1 | x | 12% | -1.7 | x | 0
Cc1ccc(S(=O)(=O)N(C)C/N=C(\N)N[N+](=O)[O-])cc1 | x | 1% | -0.3 | 16 | -2
Cc1cc(C(=O)N/N=C2\CCCC(=O)C2)c2ccccc2n1 | 7 | -2% | -3.8 | 0 | -5

(continued)
SMILES | YopH PTP inh | Mtb H37Rv | RecA splice inh | Arbovirus inh | Mtb bLac sens | others
O=C(NC(=S)Nc1ncc(Br)cc1Br)c1cncc(Br)c1 | 2 | -4% | 1.8 | 4 | -16
Cc1nc2sc(C(c3ccc(Cl)cc3)N3CCOCC3)c(O)n2n1 (stereo unspecified) | -38 | -1% | -1.3 | 4 | -2
CCOc1ccc(C(=O)NCC(=O)NCC(c2ccccc2OC)N2CCCC2)cc1 (stereo unspecified) | x | x | 2.1 | x | -7
CC(NC(=O)C1CCCC1)c1ccc(Br)cc1 (stereo unspecified) | x | x | -2.7 | x | -5
O=C(NNC(=S)Nc1ccccc1C(F)(F)F)C1CC1 | x | -9% | -4.5 | x | -2
O=C1c2cccc3c([N+](=O)[O-])ccc(c23)C(=O)N1O | x | x | -166 | x | 100
Cc1ccc(CCNC(=O)CNC(=S)N(Cc2ccccc2)Cc2cccnc2)cc1 | x | -4% | 3.1 | -7 | -1
Cc1ccc2c3c([nH]c2c1C)-c1nonc1CC3 | -15 | -6% | 1.0 | 1 | 0
O=C(NCCCN1CCCC1)C1CCC(=O)N1C1CCCCC1 (stereo unspecified) | -40 | -5% | -0.8 | 1 | 6
O=c1cc(-c2ccc(O)c(O)c2)oc2cc(O)cc(O)c12 | x | 16% | -4.0 | x | -1
NC(=O)NC(CC(=O)NCCc1ccc(S(N)(=O)=O)cc1)c1ccccc1Cl (stereo unspecified) | x | -10% | 0.0 | x | -3
CCOC(=O)C(C)Oc1cccc2c(=O)n(CC(=O)NCCc3ccccc3)ccc12 (stereo unspecified) | x | 5% | -0.8 | x | 12
COc1ccc(OC)c(S(=O)(=O)Nc2cc3c4c(c2)CCC(=O)N4CCC3)c1 | x | x | -0.7 | x | -7
Cc1nc(C)n(C(C)CNS(=O)(=O)c2ccc(C)c(C)c2)n1 (stereo unspecified) | x | x | -2.9 | x | 0
COc1ccccc1N(Cc1cc(=O)[nH]c2ccccc12)C(=O)C(C)C | x | x | 3.2 | x | -7
Cc1cccc(N(Cc2ccccc2)C(=O)c2ccc(F)c(S(=O)(=O)N3CCOCC3)c2)c1 | x | x | 5.1 | x | -2
COc1ccc(-c2csc(Nc3ccc(S(=O)(=O)Nc4cc(C)on4)cc3)n2)cc1C | x | 16% | 17 | -9 | 54
O=C(N/N=C/C1=Cc2ccccc2OC1)c1ccncc1 | x | u | -11 | x | 99
O=C(CSc1nnc(CNC(=O)c2cccs2)o1)Nc1ccccc1 | x | x | 1.3 | 4 | -6
O=C(CN1C(=O)CCSc2ccccc21)NC1CCCCC1 | x | x | 1.3 | x | -5
CCCS(=O)(=O)N1CCCC(C(=O)NCCCN(C)c2ccccc2)C1 (stereo unspecified) | -16 | -13% | -0.1 | -5 | -9
O=c1c(-c2nc3ccccc3o2)c2oc3ccccc3n2c2ccccc12 | -19 | 22% | -4.7 | -2 | x
C[N+]1(CC(=O)OCCCc2ccccc2)CCCCC1 | x | -2% | 5.0 | -2 | -5
COc1ccccc1C(=O)Nc1ccnn1C1CCN(Cc2ccc3nonc3c2)CC1 | x | x | 2.9 | x | 4
CC(Sc1nncs1)C(=O)Nc1ccc2c(c1)OCO2 (stereo unspecified) | x | x | 0.5 | -4 | -6
CCOC(=O)Cn1cnc2sc3c(c2c1=O)CCC3 | -31 | -12% | -1.3 | 6 | -7
O=C(Nc1ccccc1)N1CCCN(c2c(Cl)cncc2Cl)CC1 | x | -4% | -0.5 | x | -3

A portion of the library. The share of hits here may be higher or lower than overall.
